Biofilm kill mix – clotrimazole potentiators killing C. albicans biofilm, primary screen, 4-compound mixtures. C. albicans biofilm persisters + clotrimazole, fluorescence viability; primary screen in compound mixtures of four per well. inhibition, % at 7.6 µM. 0.02% of 120,000 active. AID 1242, 2008;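 active = inhibition above 30.3% in the primary screen of four-compound pools, then above 30% when the compound was retested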;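 also: compounds exposed to preformed 24 h biofilms for 48 h; the number belongs to the whole pool; some results filed as inactive read as strong as hits; inactives centre near 12; 0% = biofilm with clotrimazole alone and 100% = kill control; retested singly at about 60 µM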
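Assay system: C. albicans biofilms / Medium: RPMI/MOPS medium, pH 7.0 / Schedule: biofilm formation 24 h, compound exposure 48 h, 37 °C / Measured by: Alamar Blue fluorescence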
Numbers without * were called inactive. Not all compounds are listed. The share of hits here may be higher or lower than overall.

SMILES | Biofilm kill mix
Cc1ccnc(NC(=O)CCC(=O)N(CC(=O)NCc2ccccc2)c2ccc3c(c2)OCO3)c1 | 15
O=C(CCC1CCCC1)Nc1ccc(C(=O)NCc2cccnc2)cc1 | -1
O=C(Nc1ccc2c(c1)CCC2)c1ccc(Cl)nc1 | -4
O=C(O)c1ccc(N2C(=O)Nc3ccccc3N2O)cc1 | 16
CCN(CC)CCN(Cc1cc2cccc(C)c2[nH]c1=O)C(=S)Nc1ccccc1 | 9
CCCN1CNC(=S)N(c2ccccc2OCC)C1 | 13
Cc1sc(NC(=O)CSc2nnnn2C)c(C#N)c1C | 17
O=C(NCCC1=CCCCC1)NC12CC3CC(CC(C3)C1)C2 | 16
CCOc1ncccc1C(=O)Nc1ccc(S(=O)(=O)NC2=NCCCCC2)cc1 | 13
Cn1c(C(=O)NCCOc2ccccc2Cl)cc(=O)n(C)c1=O | 13
COc1ccc(N(C(=O)c2cccnc2)S(=O)(=O)c2ccc3c4c(cccc24)C(=O)N3C)cc1 | 10
CCCOC(=O)c1cccc(Nc2nc(-c3cccnc3)nc3ccccc23)c1 | 5
O=c1c2ccccc2[nH]c(=S)n1-c1cccc(S(=O)(=O)N2CCCC2)c1 | 9
Cc1ccc2sc(=O)[nH]c2c1 | 14
O=C(CSc1nnc(-c2ccc(O)cc2)n1-c1ccccc1)CC(=O)Nc1ccccc1 | -11

Seven compounds from above, sorted by length of the SMILES, descending.
SMILES | Biofilm kill mix
O=C(CSc1nnc(-c2ccc(O)cc2)n1-c1ccccc1)CC(=O)Nc1ccccc1 | -11
CCN(CC)CCN(Cc1cc2cccc(C)c2[nH]c1=O)C(=S)Nc1ccccc1 | 9
CCOc1ncccc1C(=O)Nc1ccc(S(=O)(=O)NC2=NCCCCC2)cc1 | 13
O=C(NCCC1=CCCCC1)NC12CC3CC(CC(C3)C1)C2 | 16
O=C(O)c1ccc(N2C(=O)Nc3ccccc3N2O)cc1 | 16
O=C(Nc1ccc2c(c1)CCC2)c1ccc(Cl)nc1 | -4
CCCN1CNC(=S)N(c2ccccc2OCC)C1 | 13

Following part:
SMILES | Biofilm kill mix
CCOC(=O)C1CCN(Cc2cn(C)nc2-c2ccc(Oc3ccccc3)cc2)CC1 | 8
Cc1ccc(S(=O)(=O)NCC(=O)NCc2ccncc2)cc1 | 17
CCOc1ccc(C(C)=O)cc1CSc1nnnn1-c1ccc(O)cc1 | 5
NC(=O)c1cccnc1 | 13
COCCCNC(=O)c1ccc([N+](=O)[O-])c(Cl)c1 | 7
O=C1CSC(c2ccccc2)N1Nc1nc(N2CCOCC2)nc(N2CCOCC2)n1 (stereo unspecified) | -4
O=C(N[C@@H](Cc1c[nH]c2ccccc12)C(=O)O)c1ccccc1Cl | 4
O=C1NC(CCc2ccccc2)C(=O)N1CCOc1ccccc1 (stereo unspecified) | 18
COc1ccccc1C(=O)N1CCC(N2CCN(c3ccccc3)CC2)CC1 | 13
CC1(c2ccccc2Cl)NC(=O)N(CC(=O)NCCC2=CCCCC2)C1=O (stereo unspecified) | 0
NNC(=O)c1ccc(-c2ccccc2F)cc1 | 8
O=C(NC1CCCCC1)C(c1ccncc1)N(C(=O)Cc1cccs1)c1ccccc1 (stereo unspecified) | 18
O=C(CP(=O)(O)CC(=O)c1ccccc1)c1ccccc1 | 2
C/C(=N\NC(N)=O)c1c(F)cccc1F | 14
OCCN1CCN(CC(O)COCCOc2ccc(Br)cc2)CC1 (stereo unspecified) | 7
Cc1cc(NC(=O)COC(=O)CNS(=O)(=O)c2ccc(C)c(C)c2)no1 | 5
CCOc1cc2[nH]c(=S)n(C3CCN(Cc4ccccc4)CC3)c(=O)c2cc1OCC | 12
O=C1CCCN1CN(C(=O)c1ccccc1)c1ccccc1 | 13
N#CC(Sc1ccccn1)c1ccc(Cl)cc1 (stereo unspecified) | 13
COc1ccc(NC(=S)NCC(c2cccnc2)N2CCOCC2)cc1 (stereo unspecified) | -1
Cn1c(Cc2ccc3c(c2)OCO3)nnc1SCC(=O)NC(C)(C)C | 2
COc1cc([N+](=O)[O-])c2nccnc2c1 | 2
CN1C(=O)C(CC(=O)Nc2ccc(Cl)cc2)N(Cc2ccco2)C1=S (stereo unspecified) | -17
COc1cc(OC)c(OC)cc1/C=N/NC(=O)c1ccc2nc[nH]c2c1 | 12
c1ccc(Nc2nc(NCc3ccco3)c3ccccc3n2)cc1 | 31
COc1ccc(C(=O)ON=C2c3ccccc3-c3ccccc32)cc1OC | 13
NC(=O)c1ccc(NC(=O)COC(=O)c2c3c(nc4ccccc24)/C(=C\c2cccs2)CCC3)cc1 | 13
Cc1ccc(/C=C/C(=O)N2CCCC(C(N)=O)C2)o1 (stereo unspecified) | 22
COc1cccc(OC)c1C(=O)OCC(=O)Nc1cccnc1Cl | 7
C#CCN1C(=O)C(O)(CC(=O)/C=C/c2ccco2)c2ccccc21 (stereo unspecified) | 17

Another view of part of the listing above.
Structure	Biofilm kill mix
CN1C(=O)C(CC(=O)Nc2ccc(Cl)cc2)N(Cc2ccco2)C1=S (stereo unspecified)	-17
COc1cc(OC)c(OC)cc1/C=N/NC(=O)c1ccc2nc[nH]c2c1	12
c1ccc(Nc2nc(NCc3ccco3)c3ccccc3n2)cc1	31
COc1ccc(C(=O)ON=C2c3ccccc3-c3ccccc32)cc1OC	13
NC(=O)c1ccc(NC(=O)COC(=O)c2c3c(nc4ccccc24)/C(=C\c2cccs2)CCC3)cc1	13
Cc1ccc(/C=C/C(=O)N2CCCC(C(N)=O)C2)o1 (stereo unspecified)	22
COc1cccc(OC)c1C(=O)OCC(=O)Nc1cccnc1Cl	7

Next structures.
SMILES | Biofilm kill mix
O=C(O)CS/C(=C\c1ccc(F)cc1)c1nc2ccccc2s1 | 17
OC1CCN(CC(O)C(F)(F)F)CC1 (stereo unspecified) | -2
COc1cc(C(=S)N2CCCC2)cc(OC)c1OS(=O)(=O)c1ccc(NC(C)=O)cc1 | 4
CCOC(=O)N/N=C\c1sccc1C | 15
CCn1c(CC(=O)Nc2ccc(C)cc2)n[nH]c1=S | 16
CCOc1ccc(/C=C2\SC(=O)N(c3ccc(O)cc3)C2=O)cc1OC | -2
Cc1ccc(C(=O)Nc2ccccc2C(=O)NC(Cc2c[nH]c3ccccc23)C(=O)O)cc1 (stereo unspecified) | 23
O=C(c1cc([N+](=O)[O-])cc([N+](=O)[O-])c1)N1CCOCC1 | 23
Oc1ccc(Cl)cc1C=NCCc1ccccc1 | 19
CC[C@H](C)C(C(=O)N1CCN(C(=O)OC(C)(C)C)CC1)n1cc(C(Cc2ccc(O)cc2)NC(=O)OC(C)(C)C)nn1 (stereo partly specified) | 12
CSc1cccc(NC(=S)N2CCCN(Cc3cccc(Cl)c3)C2)c1 | 7
c1ccc2oc(-c3ccn[nH]3)cc2c1 | 2
CN(C)CCNC(=O)Cc1ncc(C(F)(F)F)cc1Cl | 10
CCN(CC)c1ccc(/C=N/NC(=O)c2cccc(S(=O)(=O)N3CCOCC3)c2)cc1 | 9
Cc1ccc(OCC(=O)N2N=C(c3cccnc3)CC2(O)C(F)(F)F)cc1C (stereo unspecified) | 14
O=C(CNS(=O)(=O)c1ccccc1)OCc1cccc([N+](=O)[O-])c1 | 9
O=C(O)c1ccccc1C(=O)Nc1ccc(Oc2ccc3ccccc3c2)cc1 | 11
COc1ccc(NS(=O)(=O)c2ccc(N3CCCC3)c(NC(=S)Nc3cccc(S(=O)(=O)N(C)C)c3)c2)cc1 | -3
O=C(CC(=O)Nc1cccc(Cl)c1)N/N=C\c1ccccc1 | 19
CCN(c1ccccc1)S(=O)(=O)c1cc(C(=O)OC(C)C(=O)Nc2ccc3c(c2)OCCO3)ccc1C (stereo unspecified) | 0
CCCCCCN1C=C/C(=C\C=C(C#N)C#N)c2ccccc21 | 5
S=c1[nH]nc(-c2ccc3ccccc3n2)n1-c1cc(Cl)cc(Cl)c1 | 18
Cc1ccc(-c2n[nH]c(=O)c3ccccc23)cc1S(=O)(=O)NC(C)(C)C | 5
O=C(Nc1ccc(F)cc1)C1C(c2ccccc2)C1(Cl)Cl (stereo unspecified) | -10
COc1cccc(N=C(N)N)c1 | 11
Cc1sc2ncnc(OCc3nnc(-c4cccs4)o3)c2c1C | -7
O=C(CSc1nnc(-c2cccs2)o1)NCc1ccco1 | 14
COc1ccccc1NS(=O)(=O)c1cccc(C(=O)NNC(=O)C(NC(N)=O)C(C)C)c1 (stereo unspecified) | 27
O=C(NN1C(=O)c2ccccc2NC1c1ccccn1)c1ccc([N+](=O)[O-])cc1 (stereo unspecified) | 11
O=S(=O)(Cc1ccc(Cl)cc1)c1ncc(CO)n1Cc1ccccc1 | 15
COc1ccc(/C=C2\CCOC2=O)cc1 | 11
CCn1c(=O)c2c(nc3n2CCCN3c2cccc(C)c2)n(C)c1=O | 16
Cc1nn(-c2ccccc2)c(Cl)c1CN(C(=O)CCl)c1ccc(Cl)cc1 | 13
N/C(=N\OC(=O)CCCc1ccccc1)c1cccnc1 | 25
O=C(NN=C1CCN(Cc2ccccc2)CC1)c1cccc(S(=O)(=O)Nc2ccccc2Cl)c1 | 9
O=C1C=C(Nc2cccc(O)c2)CC(c2ccco2)C1 (stereo unspecified) | 15
O=C(CSc1nnc(Cc2ccccc2)o1)Nc1ccccc1 | 15
COc1ccc(C(=O)NNc2cc(C)nc(NNC(=O)c3ccc(OC)cc3)n2)cc1 | 2
O=C(CCc1nnc(CCCc2ccccc2)o1)NCCCC1CCCC1 | 2
CCC(C)[C@H](N)c1cn([C@@H](Cc2ccc(O)cc2)C(=O)N2CCNCC2)nn1 (stereo partly specified) | 17
O=C(CCNC(=O)Cn1ccc2ccccc2c1=O)NCc1ccccn1 | 9
COCC(=O)OCC(=O)Nc1cc([N+](=O)[O-])ccc1Cl | 3
COc1cc(CN2CCCC(C(=O)c3ccc4c5c(cccc35)CC4)C2)cc(OC)c1O (stereo unspecified) | 8
Cc1cc(C)cc(NC(=S)NCCN(C2CCCCC2)C2CCCC2)c1 | 4
CSc1nc(-c2ccc(Cl)cc2)nc(N)c1C#N | 24
CCCn1cnc2sc(CC)cc2c1=O | 5
O=C1NCCN/C1=C\C(=O)c1ccc(Cl)cc1 | 22
O=C1CCCN1CCCNC(=S)Nc1ccc(F)cc1 | 21
C#CCOC(=O)Nc1cnccc1C(F)(F)F | 16
COC(=O)c1cnc(Nc2ccc(Cl)cc2)c([N+](=O)[O-])c1 | 15
CCC(CC)C(=O)N1CCN(c2ccccc2)CC1 | 27
Cc1cccc(CCNC(=O)CN(C)S(=O)(=O)c2cnc[nH]2)c1 | 21
COc1ccc(C2CC(c3ccc(C)o3)=NN2C(C)=O)cc1 (stereo unspecified) | -6
CC1CC(CC(=O)NC(=S)Nc2ccccc2Cl)C(=O)O1 (stereo unspecified) | 3
O=S(=O)(Cc1ccccc1)NCC1CCCN(Cc2cccc3nonc23)C1 (stereo unspecified) | 3
O=C(O)/C=C\C(=O)Nc1ccc(OC(F)F)cc1 | 3
OCCC1CN(Cc2cccc(O)c2)CCN1CCc1ccccc1 (stereo unspecified) | 3
Cc1cccc(Oc2cc(NC(=O)Cn3cnc([N+](=O)[O-])n3)cc([N+](=O)[O-])c2)c1 | 19
CC(Sc1nnc2ccccn12)C(=O)NCc1ccc2c(c1)OCO2 (stereo unspecified) | 16
Cc1ccc(C(=O)NC(=S)Nc2ccc(N3CCOCC3)cc2)c(C)c1 | 15

Continuation.
SMILES | Biofilm kill mix
CC(CN(C)C)CN1c2ccccc2CCc2ccccc21 (stereo unspecified) | 32
Cc1ccnc(NC(=O)COc2ccccc2[N+](=O)[O-])c1 | 16
CCn1cc(C(C)NC(=O)Nc2ccc3c(c2)OCO3)c(C)n1 (stereo unspecified) | 11
CCOC(=O)C1(CCOC)CCN(Cc2nc(-c3cccs3)oc2C)CC1 | 16
COc1ccccc1-c1nc2ccccc2nc1-c1ccccc1OC | 12
CC(=O)c1ccc(N2CCN(C(=O)Nc3ccc(C(C)C)cc3)CC2)cc1 | 4
O=C(CSc1nc2ccccc2s1)NCc1ccc2c(c1)OCO2 | 11
CC(=O)c1cc2c(cc1NC(=O)C1CCC1)OCO2 | 13
COc1ccc(NC(=S)NC(=O)c2ccc(Br)o2)cc1 | 8
COc1cccc(Nc2ncc(C#N)c(N)n2)c1 | 22
O=C(c1ccoc1)N1CCC2(CC1)Oc1ccc(F)cc1C(=O)C21CC(c2ccc(Cl)cc2)=NO1 (stereo unspecified) | 5
O=C(O)CC/C(=N/NC(=O)CNC(=O)Cc1ccc(Cl)cc1)c1ccccc1 | 8
O=C(Cn1c(CO)nc2ccccc21)NCCc1ccc(F)cc1 | 12
C=CCNC(=O)c1sc(-c2ccccc2)nc1C | 8
O=c1c2ccccc2cnn1-c1nc2ccccc2[nH]1 | 15
Cc1cc(NC(=O)C2CCCN2C(=O)Nc2c(C)cccc2C)ccc1-n1cnnn1 (stereo unspecified) | 12
Cc1cc(NC(=O)CSCc2ccccc2C)no1 | 14
COc1ccc(NC(=O)CN2C(=O)N(C)Cc3ccccc32)c(C)c1 | 6
Cc1ccc(NCc2cccnc2)c(Br)c1 | 11
CCCC1CCC(=C(C#N)C(N)=O)CC1 (stereo unspecified) | 3
O=C(N/N=C/c1ccccn1)c1ccc([N+](=O)[O-])cc1 | -7
NC(=O)COc1ccc(Cc2ncc(C(F)(F)F)cc2Cl)cc1 | 4

Retrieved one by one from the entries so far (three):
SMILES | Biofilm kill mix
Cc1ccc(S(=O)(=O)NCC(=O)NCc2ccncc2)cc1 | 17
CCn1c(=O)c2c(nc3n2CCCN3c2cccc(C)c2)n(C)c1=O | 16
O=S(=O)(Cc1ccccc1)NCC1CCCN(Cc2cccc3nonc23)C1 (stereo unspecified) | 3

Screening data (PubChem BioAssay)
